# TRPV1 PAM = HTS Assay for Compounds that Act as Potentiators of the Vanilloid Receptor 1. TRPV1-expressing cells, Fluo-8 calcium influx, capsaicin EC20 potentiation; host cell line not named in the record; control for the full effect not named in the record. potentiation, % at 8.33 µM. Transient receptor potential cation channel subfamily V member 1 (Homo sapiens), Q8NER1. AID 540277, 2011. hit rate 0.02% among 320,000; active means potentiation above 80%; inconclusive means 30% to 80%; inactive means below 30%; further: 0% is about no effect
# Target sequence (Q8NER1 whole entry, looked up): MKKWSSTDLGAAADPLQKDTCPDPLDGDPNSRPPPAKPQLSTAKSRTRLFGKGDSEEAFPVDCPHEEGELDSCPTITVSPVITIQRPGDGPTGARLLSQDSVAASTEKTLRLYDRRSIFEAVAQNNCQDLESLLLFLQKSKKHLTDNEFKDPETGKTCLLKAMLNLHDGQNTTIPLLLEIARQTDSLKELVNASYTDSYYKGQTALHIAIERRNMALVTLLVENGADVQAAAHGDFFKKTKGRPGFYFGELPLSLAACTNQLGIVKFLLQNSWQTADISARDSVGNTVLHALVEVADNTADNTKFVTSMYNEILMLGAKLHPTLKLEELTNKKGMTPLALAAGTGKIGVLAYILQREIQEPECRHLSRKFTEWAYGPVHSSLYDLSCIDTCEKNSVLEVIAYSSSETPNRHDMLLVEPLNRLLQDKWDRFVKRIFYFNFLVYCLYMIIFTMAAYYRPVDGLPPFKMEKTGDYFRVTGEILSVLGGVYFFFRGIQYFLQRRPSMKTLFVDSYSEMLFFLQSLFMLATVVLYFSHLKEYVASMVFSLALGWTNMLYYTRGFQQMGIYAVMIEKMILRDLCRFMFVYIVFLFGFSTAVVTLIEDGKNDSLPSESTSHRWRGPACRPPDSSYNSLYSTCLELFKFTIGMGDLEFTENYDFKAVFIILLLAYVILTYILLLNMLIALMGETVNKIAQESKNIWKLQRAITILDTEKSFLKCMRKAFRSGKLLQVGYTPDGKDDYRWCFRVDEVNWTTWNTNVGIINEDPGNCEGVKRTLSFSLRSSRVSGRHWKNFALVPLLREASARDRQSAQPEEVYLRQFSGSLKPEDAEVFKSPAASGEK
#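 Cells expressing TRPV1 were dye-loaded with Fluo-8 and read kinetically: 10 s baseline, 3 min after compound (agonist portion), then 2 min after EC20 capsaicin (allosteric enhancer portion). Calcium-bound dye fluorescence at 480/520 nm.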
# gsp antagonist = qHTS for Antagonists of gsp, the Etiologic Mutation Responsible for Fibrous Dysplasia/McCune-Albright Syndrome: qHTS; gsp-mutant cells, cAMP HTRF, 30 min; control for the full effect not named in the record; Potency, µM (titrated, usually from 76.9 µM), for the others: at the top dose activity change, negative = inhibition, actives largely listed as inhibitors; hit rate 0.4% among 340,000; active = falling curve of any shape with a large fitted effect; inconclusive = falling curve, mostly with a smaller effect; inactive = flat or rising curve; cell line not stated here;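 further: intracellular cAMP measured with PDE inhibitor Ro 20-1724 present during compound exposure; potency means the concentration at half of the fitted maximal effect; on the % scale 0 is the no-effect control and ±100 the full control effect; nearly all actives have a fitted effect of over 65% in size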
#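 Measurement of cellular cAMP by homogeneous time-resolved fluorescence following a 30 min compound exposure at 37C. The PDE inhibitor […] was present throughout; the assay buffer was DPBS with 0.05% BSA and 0.005% Tween 20.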
# ClpP mod = qHTS Assay for Activators of ClpP; ATP-dependent Clp protease proteolytic subunit (Bacillus subtilis (strain 168)), P80244; purified B. subtilis ClpP, FRET peptide cleavage, 20 min; Potency, µM (top dose mostly 57.5 µM), for inactives: at the top dose activity change, negative = active; hit rate 1.9% among 340,000; active = well fitted falling curve with a large enough effect; inconclusive = small, poorly fitted or top-dose-only effect; inactive = no such curve, though single readings can be large or run the other way; further: potency means the concentration at half of the fitted maximal effect; the source files actives as falling curves though it sought activators and does not explain the sign; nearly all actives have a fitted effect of over 65% in size; many hits overshoot -100%
# Target sequence (P80244 whole entry, looked up): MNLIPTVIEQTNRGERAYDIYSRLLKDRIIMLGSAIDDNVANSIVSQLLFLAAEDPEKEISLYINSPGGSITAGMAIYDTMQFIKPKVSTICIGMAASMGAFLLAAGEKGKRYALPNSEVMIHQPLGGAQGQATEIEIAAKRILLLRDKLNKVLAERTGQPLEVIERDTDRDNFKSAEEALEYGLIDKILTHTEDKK
#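 FRET quenching reversal measured ClpP activation: 10 microg/mL B. subtilis ClpP at pH 8 with the FRET-FV decapeptide, read at 430 nm after 320 nm excitation. The 20-min minus 0-min signal was scaled between DMSO/no-enzyme wells and ADEP (5.8 microM final).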
# Sfp inh = qHTS Assay for Inhibitors of Bacillus subtilis Sfp phosphopantetheinyl transferase (PPTase). 4'-phosphopantetheinyl transferase ffp (Bacillus subtilis), Q9F4F7. Biochemical Sfp PPTase activity, qHTS. Potency, µM, without a hit: max response, negative = inhibition, hits mostly inhibitors. hit rate 3.5% among 310,000. AID 1490, 2009; active means well fitted inhibition curve with a large enough effect; inconclusive means small, poorly fitted or top-dose-only effect, or another doubt; inactive means no such curve, though single readings can be large or run the other way;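 further: the enzyme is Sfp with the accession as filed and its product quenches rhodamine fluorescence; potency means the concentration at half of the fitted maximal effect; 0% = enzyme reaction without inhibitor and -100% = no enzyme wells; top concentration of the series not given in the record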
#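 Step 1, compound plus 15 nM Sfp-PPTase, 15 min, room temperature. Step 2, add rhodamine-CoA (5 uM) and BHQ-2-YbbR (12.5 uM). Step 3, read 525/598 nm fluorescence at 0 and 30 min.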
# gsp agonist = qHTS for Agonist of gsp, the Etiologic Mutation Responsible for Fibrous Dysplasia/McCune-Albright Syndrome: qHTS | Potency, µM (series often up to 76.9 µM), for inactives: top-dose activation (cAMP increase), actives largely listed as activators | gsp mutant cells, cAMP HTRF, 30 min; control for the full effect not named in the record | hit rate 0.13% among 340,000; active = well fitted activation curve with a large enough effect; inconclusive = small, poorly fitted or top-dose-only effect, or another doubt; inactive = no such curve, though single readings can be large or run the other way; cell line not stated here;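 further: phosphodiesterase inhibitor Ro 20-1724 added with compounds to block cAMP breakdown; potency means the concentration at half of the fitted maximal effect; nearly all actives have a fitted effect of over 60% in size; about a fifth of the inactives were tested at one dose only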
#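 Cells in DMEM/10% FBS with G418 were pretreated with compounds in DMSO plus […] (300 uM stock) for 30 min at 37C. cAMP was measured by HTRF (cAMP-d2 plus anti-cAMP antibody-K) after 30 min at room temperature.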
# CtBP-E1A inh = qHTS Assay for Inhibitors of the CtBP/E1A Interaction; CtBP / adenovirus E1A interaction (AlphaScreen); AlphaScreen GST-E1A/His-CtBP binding, 1536-well; stronger effect = lower value; control for the full effect not named in the record; activity change, % (test concentration not listed); hit rate 0.49% among 340,000; AID 651724, 2012; in the data active means activity change below about -65%; inconclusive means about -30% to -65%; inactive means above about -30%; further: on the % scale 0 is the no-effect control and ±100 the full control effect; compound concentration not given in the record
#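 Steps: dispense buffer (Tris pH 8.0, NaCl 300 mM, TCEP 1 mM, BSA, Tween 20); add 5X protein mix (GST-E1A, His-CtBP, 125 nM each); pin 23 nL compound; 2 h at 37 °C, dark; add 5X beads (50 ug/mL); 1 h; read.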
# Menin MLL FP FL = qHTS Assay for Inhibitors Targeting the Menin-MLL Interaction in MLL Related Leukemias: Competition With Fluorescein Labeled MLL-derived Peptide; 290,000 tested, under 10 active; Fluorescence polarization, fluorescein-MLL peptide displacement from menin; FP activity change, % at 61.4 µM; inconclusive = falling polarisation curve, or a change in total fluorescence; inactive = total fluorescence flat and polarisation flat or rising; no compound was filed as active; the % refers to the polarisation; negative = inhibition;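 further: % of control where 0% means no effect; inhibitors lower the polarisation; unlabelled MLL peptide was the positive control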
# An asterisk follows results filed as active; ? = inconclusive; · = no result given; [ ] = dose if it differs, or a comment. Random draw from the library. Share with any hit: about 5.3%.
SMILES,TRPV1 PAM,gsp antagonist,ClpP mod,Sfp inh,gsp agonist,CtBP-E1A inh,Menin MLL FP FL
Cc1ccccc1CN1CCN(C(=O)c2ccco2)CC1,-15,-12%,-1.7%,?,-15%[15.4 µM],1,-8.6
CC1=C(C#N)C(C)(C)C(C#N)=C(C)N1,·,·,-16%,·,3%,-2,·
Cc1ccccc1Cn1cnc2c([N+](=O)[O-])c(C)c(C)cc21,1,?,1.5%,3%,-2%,-3,3.4
Cn1c(=O)cc(SCC(=O)NCCC2=CCCCC2)c2ccc(Cl)cc21,-8,5%,-19%,9%,-2%,10,0.4
CC1CCN(C(=O)Cn2cc([N+](=O)[O-])ccc2=O)c2ccccc2S1 (stereo not drawn),·,7%,·,·,10%,-16,·
Cc1cc(NC(=O)CN(C)CC(=O)Nc2ccc(Cl)c(C(F)(F)F)c2)no1,-12,-15%,-1.1%,·,4%,-12,·
Cc1cc(C(=O)CN2C(=O)c3ccccc3S2(=O)=O)c(C)n1C(C)C,-8,5%,-1.8%,·,16%,-22,·
CC(C)CCN1CCN(C2CCN(c3ccc4c(c3)OCO4)CC2)CC1CCO (stereo not drawn),5,-3%,·,1%,3%,2,-2.5
O=C(NCCCCc1ccccc1)Nc1ccc(F)cc1,0,1%,1.1%,13%,-5%,4,-4.4
O=C(Nc1ccc(F)cc1)c1cccnc1N1CCCCC1,1,-2%,-2.2%,1%,-1%,-6,8.3
Cc1ccc(-c2n[nH]c(=S)n2/N=C/c2cccs2)cc1,7,-14%,0.7%,-27%,-43%[inhibitor],-13,-2.9
O=C(NC(=S)N1CCN(c2ccc(F)cc2)CC1)C12CC3CC(CC(C3)C1)C2,0,-1%,-8.3%,22%,0%,5,-0.6
COc1ccc2sc(N(CCCN(C)C)C(=O)c3ccc(S(=O)(=O)N4CCCC4)cc3)nc2c1,2,2%,-1.3%,·,11%[15.4 µM],-13,·
Cc1c(C(=O)NCCO)sc2nc3n(c(=O)c12)CCC3,-7,11%,·,22%,-5%[15.4 µM],0,-2.0
CCOc1ccc(S(=O)(=O)Nc2cccc(C(=O)N3CCN(C(C)=O)CC3)c2)cc1,20,11%,-12%,·,1%,9,·
Cc1cc(C)n(-c2nc(Nc3ccccc3)nc(-n3nc(C)cc3C)n2)n1,0,20%,-6.8%,8%,-40%[inhibitor],?,0.0
CNC(=O)c1cc2ccccc2o1,-6,0%,-1.9%,24%,2%,-1,-2.6
Cc1cccc(C)c1OCC(=O)Nc1c(C)nn(C)c1C,-6,4%,-1.4%,18%,3%,-1,1.1
COC(=O)c1ccc(CN2C(=O)NC3(CCCCC3C)C2=O)o1 (stereo not drawn),3,-1%,-0.8%,8%,-23%,3,0.1
CCc1ccc(NC(=S)/N=C(\N)Nc2nc(C)c3cc(CC)ccc3n2)cc1,18,-7%,·,27%,?,-27,0.6
Cc1cccc(NC(=O)c2cc(-c3cc(Cl)ccc3O)n[nH]2)c1,16,11%,-0.5%,12%,-8%[15.4 µM],0,1.7
Nc1ncnc2c1ncn2Cc1ccccc1,24,-9%,-0.2%,5%,19%,·,1.2
S=C(Nc1cccc(Br)c1)c1ccccc1,-4,-8%,-0.2%,3%,2%,-1,-3.2
CCCNC(=O)c1ccccc1NC(=O)c1ccc2c(=O)n3c(nc2c1)CCC3,-1,8%,2.4%,·,-9%[15.4 µM],21,·
COc1ccc(NS(=O)(=O)c2cccc(C(=O)NCCCN3CCOCC3)c2)cc1,7,5%,?,·,-7%,-5,·
CC(=O)N1CCc2cc(S(=O)(=O)N3CCc4ccccc43)ccc21,4,-13%,?,14%,-3%,9,0.7
Cc1c(C=O)c2ccccc2n1CC(=O)O,10,4%,1.0%,11%,-20%,·,0.4
COc1ccc(OCCC(=O)OCC(=O)Nc2cccc(Br)c2)cc1,4,2%,-4.9%,2%,17%[15.4 µM],-1,4.6
O=C(NC1CCSc2ccccc21)c1ccc(Cl)c(S(=O)(=O)N2CCOCC2)c1 (stereo not drawn),-5,8%,3.1%,4%,-3%,-2,·
C=CCOC(=O)/C(=C\C=C\c1ccccc1)NC(=O)c1ccccc1,-7,-6%,-1.9%,15%,-4%[15.4 µM],-4,5.6
COCCOC(=O)c1c(C)oc2ccc(NS(=O)(=O)c3cccs3)cc12,-19,-4%,·,-4%,-39%[inhibitor],1,0.7
O=C(/C=C/c1cc2c(cc1Br)OCO2)NCc1ccc(F)cc1,·,-9%,?,7%,2%,0,2.1
O=C(CN(Cc1cccs1)C(=O)CN1C(=O)COc2ccccc21)NCc1ccco1,-5,-9%,0.2%,0%,8%,-1,2.3
COc1ccc(-n2c(SCC(=O)Nc3ccc4c(c3)OCO4)nnc2C(C)N2CCCCC2)cc1 (stereo not drawn),-10,11%,2.1%,6%,-11%,-1,0.0
COc1ccc(N2C(=NC(=O)c3ccc(Br)cc3)SC3CS(=O)(=O)CC32)cc1 (stereo not drawn),-3,8%,-0.5%,·,1%,5,·
CSc1oc(-c2ccc(F)cc2)nc1S(=O)(=O)c1ccc(F)cc1,·,-1%,-5.9%,13%,-91%[inhibitor],1,0.4
Cc1cc(C)n(CCC(=O)N2CCCC(N3CCN(c4cccc(Cl)c4)CC3)C2)n1 (stereo not drawn),13,-2%,0.3%,7%,-23%,0,·
COc1ccccc1NC(=O)CSc1nnc(CCC(=O)Nc2ccccc2F)n1C,6,0%,-2.6%,-20%,-4%,-5,0.2
Clc1nnc(NC2CCCCC2)c(Cl)c1Cl,·,·,-0.2%,·,4%,2,·
Cc1ccc(C)c(SCC(=O)Nc2ccc(C)c(S(=O)(=O)N3CCOCC3)c2)c1,9,-20%,0.4%,·,18%,-12,·
N=C1C(c2ccccc2)=C(O)CN1CCO,3,1%,-3.9%,-21%,3%,0,0.2
COc1ccc(C2/C=C\CN(C(=O)c3ccccc3)CC(=O)N2Cc2cccc(F)c2)cc1 (stereo not drawn),·,-31%,-0.7%,·,·,1,·
O=C(Nc1ccc(-c2n[nH]c(=S)o2)cc1)c1ccccc1,?,-20%,-3.1%,-15%,?,·,-0.9
Clc1ccccc1CSC1=NCCN1,-4,15%,1.6%,20%,-6%,8,3.5
O=C(Cc1ccc([N+](=O)[O-])cc1)NNC(=O)c1ccc2c(c1)OCO2,29,2%,0.2%,13%,20%,3,·
O=C(COc1ccccc1)Nc1ccncc1,-9,-1%,·,14%,8%,3,3.3
CC(C)OCCOc1ccc2oc(-c3ccco3)cc(=O)c2c1,-12,3%,-6.4%,8%,2%[15.4 µM],-2,-3.7
C=CCN1C(=O)C(O)(CC(=O)c2ccccn2)c2ccccc21 (stereo not drawn),6,5%,·,9%,-35%[inhibitor],3,-1.6
NS(=O)(=O)c1cccc(NC(=O)COC(=O)c2cc(Cl)ccc2[N+](=O)[O-])c1,18,0%,0.1%,13%,29%,-12,2.6
Cc1ccc(C)c(OCCC(=O)OCC(=O)NCCNC(=O)COC(=O)CCOc2cc(C)ccc2C)c1,14,-9%,·,·,-12%[15.4 µM],2,·
Cc1c(C(=O)O)sc2nc(SCC(=O)Nc3ccc(S(=O)(=O)NCCCC(=O)O)cc3)[nH]c(=O)c12,1,-1%,-15%,20%,12%,·,3.0
O=C1C2ON(c3ccccc3)C(c3ccccn3)C2C(=O)N1c1ccc(Br)cc1 (stereo not drawn),-10,-5%,0.9%,6%,-5%,0,0.3
CCC(=O)N(Cc1cccs1)C1CCOC(C)(C)C1 (stereo not drawn),-7,9%,1.0%,17%,4%,-2,1.2
O=C(COC(=O)c1ccc(NS(=O)(=O)c2ccc(Br)s2)cc1)NC1CCCC1,5,-21%,·,3%,-1%,-7,-3.3
CCOc1ccc(C(C)(N)C(=O)O)cc1 (stereo not drawn),4,17%,1.6%,-8%,-58%[inhibitor],-2,-0.1
Cc1ccc(C(=O)/C=C/c2ccc3ncccc3c2)cc1,-24,?,0.6%,-17%,-29%,8,-0.2
COCCCN(C(=S)NC(=O)C(C)(C)C)c1c(N)n(Cc2ccccc2)c(=O)[nH]c1=O,·,-9%,-4.5%,-29%,30%,21,7.4
CCc1cccc(NC(=O)CCS(=O)(=O)c2ccc3c(c2)NC(=O)CO3)c1,-4,6%,0.7%,17%,6%,3,2.5
Cn1c(SCC(=O)c2ccccc2)nc2cccnc21,22,-2%,-1.3%,4%,-21%,-3,3.1
O=C(Nc1ccccc1)C1=C[C@@H](c2ccc3c(c2)OCO3)C[C@@H](OCCCCO)O1,·,-17%,-0.5%,·,·,0,·

# Further results
SMILES,TRPV1 PAM,gsp antagonist,ClpP mod,Sfp inh,gsp agonist,CtBP-E1A inh,Menin MLL FP FL
O=S(=O)(Nc1ccc(Cl)cc1)c1ccc(N2CCOCC2)c(NC(=S)NC2CC2)c1,2,-17%,0.7%,-86%,-25%,·,3.2
Cc1cc(C)c(NC(=O)CSc2nnc(Cc3cccn3C)n2-c2ccc(F)cc2)c(C)c1,15,-8%,26%,50µM*,18%,-2,4.8
O=C(NNC(=O)c1c(F)cccc1F)c1sccc1-n1cccc1,7,-8%,-0.5%,1%,-21%,-9,-4.9
CC(=O)c1cccc(NC(=O)COC(=O)COc2ccc(Cl)cc2)c1,-23,4%,·,12%,-42%[inhibitor],0,0.7
COC(=O)[C@@H]1CCCN1C(=O)[C@@H](NC(=O)OC(C)(C)C)C(C)C,·,9%,1.1%,4%,-11%,0,4.0

# Bioassay records (PubChem BioAssay)
